# High-throughput results as filed in PubChem BioAssay.
# RE007 growth inh = less growth of the S. pombe RE007 Vpr strain; S. pombe RE007 Vpr strain, BacTiter-Glo ATP luminescence, 24 h; control for the full effect not named in the record; Potency, µM (doses to about 92.2 µM), for inactives: at the highest dose activity change, negative = less growth; 360,000 compounds, 0.21% hits; active = well fitted falling curve with a large enough effect; inconclusive = small, poorly fitted or top-dose-only effect; inactive = no such curve, though single readings can be large or run the other way;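 also: % is scaled to controls: 0 for no effect and ±100 for the full control effect; nearly all actives have a fitted effect of over 50% in size; the assay follows cell death caused by Vpr and the record does not say whether a fall means rescue or toxicity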
#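 Fission yeast RE007 carrying one integrated HIV-1 vpr copy, seeded at OD 0.01 in PMG+AL medium with 23 nL pinned compound. Grown 24 h at 30 degrees; viability read by BacTiter-Glo luminescence after 5 min.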
# NS1 function inh = blocks influenza NS1 protein function. S. cerevisiae slowed by influenza A NS1, growth recovery by OD600. Potency, µM (highest dose often 46.1 µM), for the others: at the top dose activity, positive = more growth. 270,000 compounds, 0.4% hits. AID 2326; also: actives are rising curves; nearly all actives have a fitted effect of over 50% in size
#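 S. cerevisiae expressing influenza A NS1, grown in glucose, washed, then diluted 1:100 into pH 6.0 -URA galactose medium with 23 nl compound. Growth recovery read as OD600; NS1-free strain serves as control.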
# Cruzain inh noDet = blocks cruzain activity in detergent-free assay; 200,000 compounds, 2.3% hits; Potency, µM, for the others: max response, negative = inhibition, hits mostly inhibitors; purified cruzain, Z-FR-AMC fluorescence, no detergent; active = well fitted curve in the direction sought with a large enough effect; inconclusive = small, poorly fitted or top-dose-only effect, or another doubt; inactive = no such curve, though single readings can be large; an effect the other way counts as inactive or inconclusive;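 also: plate controls were enzyme without inhibitor for no effect and buffer without enzyme for full effect; nearly all actives have a fitted effect of over 40% in size; top concentration of the series not given in the record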
# Target sequence (P25779 123-467 limits assumed): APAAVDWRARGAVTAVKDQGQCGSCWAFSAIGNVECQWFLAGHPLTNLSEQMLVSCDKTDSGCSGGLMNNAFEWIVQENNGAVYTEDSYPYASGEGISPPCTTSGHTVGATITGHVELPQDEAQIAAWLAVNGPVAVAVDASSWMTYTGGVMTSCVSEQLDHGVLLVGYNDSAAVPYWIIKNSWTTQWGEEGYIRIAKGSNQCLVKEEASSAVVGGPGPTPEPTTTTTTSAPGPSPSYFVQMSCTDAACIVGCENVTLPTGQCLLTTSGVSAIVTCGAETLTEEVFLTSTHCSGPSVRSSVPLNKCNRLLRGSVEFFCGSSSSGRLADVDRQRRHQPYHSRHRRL
#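 Detergent-free condition (0.00005% Triton X-100) in acetate buffer pH 5.5 with DTT. 1.5 nM enzyme and compound were pre-mixed 15 min, then 2 uM Z-FR-AMC substrate added; reaction progress from fluorescence change between first and third reads (60 s).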
# LASV entry inh = inhibitors of Lassa virus binding or cell entry; Lassa virus pseudotype entry inhibition, cell reporter; control for the full effect not named in the record; Potency, µM (series often up to 37.9 µM), without a hit: at the top dose activity change, negative = inhibition, most hits filed as inhibitors; 300,000 compounds, 1.2% hits; active means well fitted inhibition curve with a large enough effect; inconclusive means small, poorly fitted or top-dose-only effect, or effect the other way; inactive means flat fitted curve, though single readings scatter; tested in HEK293 cells; also: % is scaled to controls: 0 for no effect and ±100 for the full control effect; nearly all actives have a fitted effect of over 50% in size; luciferase read-out
# MARV entry inh = inhibitors of Marburg virus binding or cell entry; Marburg virus pseudotyped entry inhibition, cell reporter; control for the full effect not named in the record; about a third of the inactives were read at about 46 µM; AID 540276; 300,000 compounds, 1.8% hits; Potency, µM (top dose mostly 37.8 µM), for the others: at the highest dose activity change, negative = inhibition, usual class: inhibitors; active = well fitted inhibition curve with a large enough effect; inconclusive = small, poorly fitted or top-dose-only effect, or effect the other way; inactive = flat fitted curve, though single readings scatter; tested in HEK293 cells; about a fifth of its hits are not listed in these tables; also: % is scaled to controls: 0 for no effect and ±100 for the full control effect; luciferase read-out
# Cruzain inh Det = cruzain (T. cruzi) inhibition with detergent. P25779. purified cruzain, Z-FR-AMC fluorescence, 0.01% Triton. Potency, µM, for the others: max response, negative = inhibition, usual class: inhibitors. 200,000 compounds, 0.43% hits. AID 1478; active = well fitted curve in the direction sought with a large enough effect; inconclusive = small, poorly fitted or top-dose-only effect, or another doubt; inactive = no such curve, though single readings can be large; an effect the other way counts as inactive or inconclusive;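 also: plate controls were neutral wells for no effect and buffer without enzyme for full effect; nearly all actives have a fitted effect of over 40% in size; top concentration of the series not given in the record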
#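 Enzyme 1.5 nM, Z-FR-AMC 2 uM, NaOAc 100 mM pH 5.5, DTT 5 mM, Triton X-100 0.01%; 15 min RT compound preincubation; kinetic ex360/em450, 60 s delta.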
# SARS PLP yeast = blocks SARS-CoV papain-like protease in a yeast assay. S. cerevisiae expressing SARS-CoV PLpro, growth rescue; control for the full effect not named in the record. Potency, µM (top dose mostly 32.9 µM), for the others: top-dose activity, positive = growth rescue. 330,000 compounds, 0.19% hits. AID 485353; also: 0% is about no effect; nearly all actives have a fitted effect of over 55% in size; growth read by luminescence after 48 h
# StopGo reporter = FMDV 2A StopGo reporter, luciferase signal. human cells with a luciferase reporter of 2A StopGo recoding; control for the full effect not named in the record. Potency, µM (top dose mostly 57.9 µM), inactives show at the top dose signal change, negative = less light. AID 1159524. 410,000 compounds, 1.2% hits; active = well fitted falling curve with a large enough effect; inconclusive = small, poorly fitted or top-dose-only effect; inactive = no such curve, though single readings can be large or run the other way; tested in HEK293T cells; also: % is scaled to controls: 0 for no effect and ±100 for the full control effect; nearly all actives have a fitted effect of over 45% in size; luciferase light after 4 h
# Numbers without * were called inactive; u = inconclusive; x = not tested or not shown; [ ] = dose if it differs, or a comment. Unless noted, calls follow the shape of the dose curve; as a rule, active means well fitted rising curve with a large enough effect; inconclusive means small, poorly fitted or top-dose-only effect; inactive means no such curve, though single readings can be large or run the other way. Potency is read from the fitted curve at half-maximal effect.
SMILES,RE007 growth inh,NS1 function inh,Cruzain inh noDet,LASV entry inh,MARV entry inh,Cruzain inh Det,SARS PLP yeast,StopGo reporter
CCOc1ccc(N2CC(O)(c3ccc(F)cc3)[N+]3=C2CCCC3)cc1 (stereo not drawn),-9%,-2%,x,0%,-14%[46.1 µM],x,-6%,-5%
Cc1cccc2cc(C3CC(c4ccco4)=NN3S(=O)(=O)c3ccccc3)c(Cl)nc12 (stereo not drawn),-1%,28%,u,u,u,-3.8%,6%,-13%
CC(=O)OCC1CCCC2=C(C)C(=O)CCC21COC(C)=O (stereo not drawn),-8%,-13%,9%,9%,u,-0.4%,-2%,-5%
CCN1CCN(c2nc(SC)nc3sc4c(c23)CC(C)(C)OC4)CC1,0%,4%,15%,0%,-23%,-1.7%,4%,-17%
Cc1cc(C)n(-c2ccc(C(=O)NC3=NCCS3)cc2)n1,7%,-19%,-10%,5%,u,-1.0%,4%,18%
Nc1ccc(C(=O)OCC(=O)N2c3ccccc3Sc3ccccc32)cc1[N+](=O)[O-],x,26%,u,16µM*,21µM*,-5.0%,6%,-8%
CCCCOc1ccc(Cl)cc1CSc1nnc(CC)n1N,11%,-15%,5%,-5%,-28%,6.8%,9%,-11%
O=C(Cn1nc(Cl)nc1Cl)c1ccc([N+](=O)[O-])cc1,-17%,3%,x,x,x,x,0%,-11%
COc1ccc(NC(=S)N2CCC(c3nc4ccc(Cl)cc4[nH]3)CC2)c(OC)c1,5%,3%,3%,-12%,u,-5.3%,1%,x
CC12CCC(c3nnc(SCc4ccc(Cl)cc4)nc31)C2(C)C (stereo not drawn),-15%,-3%,-8%,u,1%,-3.4%,-18%,0%
CN(C)c1ccc(N2C(=O)CC(Sc3ccccc3C(=O)O)C2=O)cc1 (stereo not drawn),6.3µM*,-30%,11%,5%,5%,-1.5%,-92%,-21%
CN(Cc1cn(C)nc1-c1ccc(Oc2ccccc2)cc1)Cc1cnc2ccccn12,-6%,-4%,x,x,x,x,-1%,11µM*
CCSC1(SCC)N=C(N)C2(C#N)C(c3ccc(F)cc3)C12C#N (stereo not drawn),4.5µM*,-15%,1%,u,u,-4.4%,0%,14µM*
CCC(=O)Nc1nc(-c2ccc3c(c2)OCCO3)cs1,0%,-9%,-4%,x,x,-1.7%,-17%,0%
Cc1ccc(CNC(=O)Cn2ccn(-c3ccc(C)c(C)c3)c(=O)c2=O)cc1,x,x,1%,-1%[46.1 µM],x,-6.7%,x,41%[activator]
CC(OC(=O)Cn1[nH]c(=O)c2ccccc2c1=O)C(=O)NC1(C#N)CCCCC1 (stereo not drawn),-5%,x,x,3%,0%,x,4%,-25%
O=C(N/N=C/c1ccc(O)cc1)c1cccc(C(F)(F)F)c1,-3%,-9%,-3%,-29%,u,-5.3%,u,-15%
Cc1ccc(-n2nc3c(c2NC(=O)c2ccc4c(c2)OCO4)CS(=O)(=O)C3)c(C)c1,1%,0%,x,-20%[46.1 µM],17%[46.1 µM],x,4%,-4%
CCN(CC)C(=O)CN(c1cccc(Br)c1)S(C)(=O)=O,8%,0%,x,-17%[46.1 µM],2%[46.1 µM],x,1%,12%
CN(C)Cc1cc(CN(C)C)c(O)c(CCc2ccccc2)n1,0%,2%,2%,7%,-3%,-3.9%,-4%,-7%
O=C(CSCc1cnn(-c2ccccc2)c1-n1cccc1)NCc1ccccn1,27%,6%,x,0%,u,x,1%,-19%
CC(NC(=S)Nc1ccccc1OC(F)F)C(C)(C)C (stereo not drawn),-7%,-8%,15%,17%,33%,1.2%,11µM*,7%
O=C(NCc1ccccn1)c1nc(-c2ccc(C(F)(F)F)cc2)no1,15%,x,x,-6%[46.1 µM],-4%[46.1 µM],x,1%,-17%
CCn1nc(C(=O)NNS(=O)(=O)c2cc(/C=C/C(=O)O)cc(OC)c2OC)c2ccccc2c1=O,12%,x,x,-4%,4%,x,0%,6%
CCc1ccc(NC(=O)Cn2nnc(-c3ccc(C)cc3-n3cnnn3)n2)cc1,-11%,-4%,x,x,x,x,-5%,-16%
CCN1CCN(C(=O)CN(C)S(=O)(=O)c2ccc(OC)cc2)CC1,16%,8%,5%,17%,4%[46.1 µM],2.2%,4%,-18%
Cc1ccccc1-n1nnnc1SCC(=O)c1c(N)n(C2CC2)c(=O)[nH]c1=O,14%,x,x,5%[46.1 µM],-21%,x,-2%,-25%
Nc1c(N2CCCCC2)c(=O)[nH]c(=O)n1-c1ccccc1,-16%,0%,-6%,4%,-3%,6.4%,2%,-12%
CCC(=O)Nc1cccc(NC(=O)c2ccc3c(c2)OCO3)c1,-5%,-5%,1%,20%,28%,3.6%,-4%,9%
CC(C)(C)c1ccc(C(CC(=O)O)NS(=O)(=O)Cc2ccccc2)cc1 (stereo not drawn),-6%,12%,x,x,x,x,1%,-21%
Cc1cccc(C)c1NC(=O)c1ccc2c(c1)nnn2C1CCCC1,x,x,-13%,-18%[46.1 µM],x,1.1%,x,-25%
COc1ccc(CNC(=O)CSc2nc3ccc(C)cc3[nH]2)cc1,3%,-1%,x,u,u,x,0%,16%
Cc1cccc(-n2c(CCN3C(=O)c4ccccc4C3=O)nc3ccccc3c2=O)n1,23%,-13%,-11%,14%,-3%,-1.6%,14%,-5%
COc1cc(NC(=O)C2CCN(S(=O)(=O)c3c(C)noc3/C=C/c3c(C)cc(C)cc3C)CC2)cc(OC)c1,x,x,6%,u,x,-1.4%,x,-19%
COc1ccc(C)cc1Nc1nc(-c2c(C)[nH]c3ccccc23)cs1,13%,u,25µM*,0%,2%,-0.4%,-3%,-4%
O=C(COc1ccccc1Cl)N(Cc1cccc(F)c1)C1CCS(=O)(=O)C1 (stereo not drawn),x,x,3%,1%[46.1 µM],-9%[46.1 µM],-3.2%,x,4%
Cc1nn(Cc2ccccc2)c(Cl)c1C(=O)NC(C)(C)C,-6%,4%,6%,-1%,5%,2.6%,-10%,-6%
O=C(NCCN=C1NS(=O)(=O)c2ccccc21)c1ccc(S(=O)(=O)N2CCOCC2)cc1,0%,-2%,-4%,0%,3%,3.1%,3%,80%[activator]
Cn1cccc1C(=O)OCC(=O)c1c[nH]c2ccccc12,-8%,x,x,-24%,-5%,x,-4%,41%[activator]
CCOC(=O)c1c(C)oc2ncnc(N3CCN(c4cccc(Cl)c4)CC3)c12,x,x,2%,-3%[46.1 µM],0%[46.1 µM],0.0%,x,28µM*
CCOC(=O)/C=c1\s/c(=C\c2ccccc2OC)c(=O)n1CC(=O)N1CCOCC1,-2%,3%,u,-24%,u,-2.7%,2%,-24%
COc1cccc2c1OCC(CN1CCN(C3CCCCC3)C(CCO)C1)=C2 (stereo not drawn),-4%,1%,x,14%[46.1 µM],0%[46.1 µM],x,0%,16%
CN1CCCc2cc(C=O)ccc21,-13%,5%,-23%,7%,9%[46.1 µM],-14%,-22%,13%
Cc1ccc(C(=O)NCCN(C)C)cc1C,6%,-11%,-10%,12%,-17%,-2.2%,5%,-7%
Cc1ccc(S(=O)(=O)N2CCOCC2)cc1C(=O)Nc1ccc(S(=O)(=O)Nc2nccs2)cc1,18%,-3%,x,x,x,x,1%,0%
CCOc1ccc(Cl)cc1CNc1nnnn1C,13%,-1%,x,x,x,x,-1%,-9%
CCc1ccc(Oc2coc3cc(O)ccc3c2=O)cc1,9%,-39%,x,x,x,x,-8%,40%[activator]
CCc1ccc(C(=O)C(C)OC(=O)C2COc3ccccc3O2)cc1 (stereo not drawn),u,2%,1%,11%,11%,-4.6%,-25%,-7%
CC(C)CCSc1nc(N2CCOCC2)c2c(c1C#N)CC(C)(C)OC2,-7%,11%,u,-1%,u,-14%,-6%,-15%
C=CCn1c(SCc2ccc(Br)cc2F)nc2cc(C(=O)O)ccc2c1=O,-13%,25%,x,15%[46.1 µM],3%[46.1 µM],x,-1%,11%
COc1ccc(S(=O)(=O)Nc2ccc3cn[nH]c3c2)cc1C,12%,x,x,2%,u,x,0%,0%
COc1ccc2[nH]c(-c3ccccc3)cc2c1,u,0%,x,-27%,8.9µM*,x,-3%,19%
O=[N+]([O-])c1cccc(/C=N/NC2CCS(=O)(=O)C2)c1 (stereo not drawn),25%,-5%,x,1%[46.1 µM],3%[46.1 µM],x,-1%,5%
CCOC(=O)c1oc2cc(OC(C)=O)ccc2c(=O)c1-c1ccc(OC)c(OC)c1,11%,-4%,x,x,2%,x,0%,-21%
C=CCn1c(-c2ccc(Cl)cc2)ccc(C#N)c1=O,u,-6%,-4%,-14%,-17%,-15%,2%,-21%
CN(CC(=O)Nc1ccc(F)cc1)C(=O)COC(=O)/C=C/c1ccc(OC(F)F)cc1,10%,x,x,-6%,-2%[46.1 µM],x,0%,-23%
CC(C)OCCCNC(=O)c1ccc2c(c1)NC(=O)c1ccccc1S2,-5%,-2%,5%,u,u,-0.2%,2%,u
COCCn1c(C)cc(C2=NNC(=Nc3ccccc3F)SC2)c1C,-10%,22%,-23%,2µM*,u,-4.0%,-6%,u
CCOc1ncccc1C(=O)OCC(=O)NCCc1ccccc1,-14%,-5%,-1%,10%,u,2.9%,-6%,16%
CCOC(=O)/C(O)=C/c1ncc(C(F)(F)F)cc1Cl,-28%,-9%,-2%,20%,-1%[46.1 µM],-0.2%,-1%,-17%
CCCc1cc(=O)n2nc(N3CCC(C(=O)Nc4c(F)c(F)c(F)c(F)c4F)CC3)sc2n1,7%,-3%,x,x,x,x,-3%,4%
Cn1c(N)c(C(=O)COC(=O)C2CCN(S(=O)(=O)c3cccs3)CC2)c(=O)n(C)c1=O,-20%,-10%,x,13%,-27%,x,-2%,1%

# The order is random; overall some 4.8% were active at least once.
